Rce1 inh – blocks yeast Ras-converting enzyme; AID 2563; yeast membranes, quenched prenylated peptide cleavage fluorescence; calls only; 0.27% of 290,000 active;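 active = fall in fluorescence gain of 50% or more versus controls, with final raw signal at or below 3038400; inconclusive = same 50% fall but final raw signal above 3038400; inactive = fall in fluorescence gain under 50%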;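 note: plate controls were neutral control wells for no effect and wells lacking membranes for full effect; tested at 10 µM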
HIV Env fusion – HIV envelope-mediated fusion inhibition; HeLa-JRFL Env/CEM21 cell fusion, luciferase; inhibition, % at 12.3 µM; 1.1% of 360,000 active; AID 651610;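 active = mean replicate inhibition score of at least 50 and every replicate individually at or above 50; inconclusive = only one of the two criteria met; inactive = mean below 50 and not all replicates reaching 50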;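 note: 0% = plate neutral controls and 100% = maraviroc near 300 nM; one replicate is shown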
Yeast UUG start – alters start codon recognition fidelity in yeast; activity score, % at 18.7 µM; S. cerevisiae UUG-firefly luciferase reporter, luminescence/redox ratio; 0.13% of 350,000 active;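 active = replicate mean at a twofold rise or more, about +100% in these data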;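 note: firefly luciferase made from a UUG start codon reports start codon fidelity; reporter light over untreated wells divided by growth signal over untreated wells; some hits fall short of that in this replicate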
PABP polyA inh – PABP-poly(A) binding inhibition; 1% of 290,000 active; AID 2014; PABP-poly(A) RNA binding, fluorescence polarization; P11940; inhibition, % at 35 µM;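 active = 50% or more with normal probe brightness, or confirmed in later tests; inconclusive = above 50% with abnormal brightness, or retests that disagree; inactive = below 50% or failed in later tests; about a fifth of its hits are not listed in these tables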;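 note: calls also rest on retests at 20 µM and on dose response follow-up; controls were probe without protein and protein plus probe with vehicle; some compounds called inactive have numbers as strong as hits; many hits fall short of the cut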
Target sequence (P11940 whole entry, looked up): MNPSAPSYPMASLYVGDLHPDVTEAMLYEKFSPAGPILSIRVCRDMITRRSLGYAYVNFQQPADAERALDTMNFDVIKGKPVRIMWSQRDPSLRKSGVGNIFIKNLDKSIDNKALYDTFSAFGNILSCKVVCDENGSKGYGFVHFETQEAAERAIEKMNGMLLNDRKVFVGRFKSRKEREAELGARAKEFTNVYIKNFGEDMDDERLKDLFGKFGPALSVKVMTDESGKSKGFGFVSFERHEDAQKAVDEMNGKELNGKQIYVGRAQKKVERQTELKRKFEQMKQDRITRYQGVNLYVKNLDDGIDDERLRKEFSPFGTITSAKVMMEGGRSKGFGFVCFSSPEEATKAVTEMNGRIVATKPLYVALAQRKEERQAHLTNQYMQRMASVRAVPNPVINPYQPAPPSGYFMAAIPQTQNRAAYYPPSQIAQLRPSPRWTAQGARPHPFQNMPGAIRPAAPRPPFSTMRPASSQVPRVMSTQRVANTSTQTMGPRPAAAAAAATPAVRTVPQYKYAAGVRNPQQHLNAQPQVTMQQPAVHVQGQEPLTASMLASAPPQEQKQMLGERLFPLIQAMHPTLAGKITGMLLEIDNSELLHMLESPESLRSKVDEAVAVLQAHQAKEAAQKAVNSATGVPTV
MT1-MMP act inh – blocks activation of human MT1-MMP; P50281; HT1080 RFP-PRO-GFP cells, GFP/RFP ratio fluorescence, overnight; percent of plate control window, DMSO zero; GFP/RFP ratio change, % at 20 µM; 0.061% of 360,000 active; AID 651647;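 active = GFP/RFP ratio change of at least 30% with cell ATP level not reduced by more than half and red fluorescence within 50% of control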; note: strong numbers were not always called active
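Material – HT1080 RFP-PRO-GFP cells · Control set – DMSO wells and RFP-L50D-GFP cells · Incubation – overnight cell settling, then overnight compound exposure, 37 °C, 5% CO2 · Compound dosing – single-point 20 µM compound, 1% DMSO · Read-out – GFP/RFP fluorescence ratio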
CSC inhib – cancer stem cell inhibition | 1.1% of 300,000 active | cancer stem cell-like cells viability, luminescence | inhibition, % at 7.5 µM;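 active = mean at 75% or more and at least half the replicates too; inconclusive = mean and replicates disagree; tested in HMLE shEcad cells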;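 note: 0% = median of negative and 100% = median of positive control wells; the first replicate is given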
eIF4H FP inh – inhibitors of RNA binding by human eIF4H. AID 2012. 0.94% of 290,000 active. Q15056. eIF4H fluorescence polarization binding assay. inhibition, % at 35 µM;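 active = 50% or more with normal probe brightness, or confirmed in later tests; inconclusive = above 50% with abnormal brightness, or retests that disagree; inactive = below 50% or failed in later tests; about a fifth of its hits are not listed in these tables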;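 note: calls also rest on retests at 20 µM and on dose response follow-up; 0% = protein and probe with vehicle and 100% = probe without protein; strong numbers were not always called active; many hits fall short of the cut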
eIF4H FP inh retest – further read-out of eIF4H FP inh, marked with its call; inhibition, %; compound at 20 µM; confirmation average;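 mean of two retest wells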
PABP polyA inh retest – further read-out of PABP polyA inh, marked with its call; inhibition, %; compound at 20 µM; confirmation repeats;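 mean of two retest wells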
MT1-MMP act inh RFP – further read-out of MT1-MMP act inh, marked with its call; RFP signal change, %; measured here: RFP expression control read;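 0 = vehicle wells; hits needed this value within 50% of zero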
* hit, by the source's call; i = inactive; u = inconclusive; x = no result given; [ ] = remark or other dose. This is a subset; count on the stated rates, not on these rows.

SMILES	Rce1 inh	HIV Env fusion	Yeast UUG start	PABP polyA inh	MT1-MMP act inh	MT1-MMP act inh RFP	CSC inhib	eIF4H FP inh	others
COc1cc(C(=O)NCc2nnc(SCC(=O)Nc3cccc(C(F)(F)F)c3)o2)cc(OC)c1OC	i	7.7	-15.1	1.9	1.2	-3.2	-6.5	1.4
c1ccc(-c2noc(-c3ccc4ccccc4c3)n2)cc1	x	-284.9	-13.7	-1.1	-2.3	1.2	-0.6	-4.3
O=C(NCc1ccccn1)C(=O)Nc1cc2c3c(c1)CC(=O)N3CCC2	i	-0.6	-17.4	x	0.1	5.8	-0.3	x
Cc1ccccc1NC(=O)C(=O)NCCCN1CCOCC1	i	-14.3	x	-9.1	-2.9	2.3	5.2	9.0
Nc1c(N(Cc2ccco2)C(=O)c2ccccc2F)c(=O)[nH]c(=O)n1Cc1ccccc1	x	-5.0	-7.2	x	-2.6	3.7	x	x
O=C(Nc1cccc(Cl)c1)c1csc([C@@H]2O[C@H](CO)[C@H](O)[C@H](O)[C@H]2O)n1	x	-5.2	-18.2	x	5.6	0.2	x	x
CC1=C(C(=O)OCc2ccccc2)C(c2ccccc2)NC(=O)N1 (stereo not drawn)	i	15.8	-12.8	-16.4	-0.1	-4.4	-8.6	-14.4
O=C(N/N=C/c1ccc(O)c2ncccc12)c1cccc(Br)c1	i	u	x	-2.2	-39.0	-17.2	-0.7	20.2
O=C(CSc1nnc(CNc2ccc(F)cc2)o1)OC1CCCCC1	i	-48.4	-18.6	6.6	-5.0	4.3	-7.6	-1.4
Cc1cc(N2CCN(c3ccccc3)CC2)n2c(n1)nc1ccccc12	i	x	x	0.4	6.2	4.6	-3.3	-4.4
NC(=O)CC(NC(=O)Cc1cccc2ccccc12)c1ccc(N2CCN(c3ccc(F)cc3)CC2)c([N+](=O)[O-])c1 (stereo not drawn)	i	7.8	-13.4	7.0	8.4	-2.6	17.5	-5.9
COc1ccccc1CNC(=O)C[C@@H]1C[C@H]2c3cc(N(C)C)ccc3O[C@H]2[C@H](CO)O1	x	-46.6[16.7 µM]	2.8	x	1.0	2.9	x	x
O=C(CCN1C(=O)c2ccccc2S1(=O)=O)N1CCN(c2cccc(Cl)c2)CC1	i	25.8	-2.1	x	3.6	-2.1	-11.9	x
COC(=O)[C@@]1(Cc2ccc(OC)cc2)[C@H]2c3cc(C(=O)N4CCCC4)n(Cc4ccc(OC)c(OC)c4)c3C[C@H]2CN1C(=O)c1ccccc1	x	-62.1	x	-1.5	x	x	x	-8.7
O=C(NCc1cccs1)c1cc(-c2ccncc2)nc2ccc(Br)cc12	i	x	x	-4.0	x	x	9.8	-12.1
CCOC(=O)Cc1cn2c(=O)cc(CSCC(=O)Nc3ccc(C)c(C)c3)nc2s1	i	-36.7	-7.6	16.3	-3.5	0.2	-1.8	26.6
Nn1c(SCC(=O)Nc2ccccc2F)nnc1-c1cccs1	i	-1.6	x	x	1.2	0.9	-1.0	x
COCc1nnc(NC(=O)CS(=O)(=O)c2ccc(C)cc2)s1	i	-5.8	-9.7	-4.3	0.0	3.4	-16.8	5.2
COc1ccc(N2CCN(C(=O)CSc3ncn[nH]3)CC2)cc1	i	x	0.4	x	1.5	2.8	-6.1	x
Cc1ccccc1C(=O)NC(CC(C)C)C(=O)Nc1ccc(F)c([N+](=O)[O-])c1 (stereo not drawn)	i	x	x	u	-1.0	-0.1	-10.7	-0.1
COC(=O)c1ccccc1NC(=O)CSc1nnc(-c2ccc(C)cc2)o1	i	x	x	-65.1	x	x	x	-2.8
CCCc1ncc(C(O)c2ccc(OC)cc2)n1C (stereo not drawn)	i	x	-16.2	-6.4	0.1	0.9	-8.9	-7.8
Cc1cc(/C=N/Nc2nc(N)ncc2[N+](=O)[O-])c(C)n1-c1cccc(C(F)(F)F)c1	i	x	x	3.2	x	x	11.8	17.6
O=C(CN1CCCCC1)NNc1nc(-c2ccccc2)c2cc(Cl)ccc2n1	i	20.4	x	13.0	1.8	-2.7	2.6	10.6
CC1CCN(CCNC(=S)Nc2ccc(Cl)cc2)CC1	i	u	x	-4.8	1.4	1.4	7.1	-10.8

Other compounds follow.
SMILES	Rce1 inh	HIV Env fusion	Yeast UUG start	PABP polyA inh	MT1-MMP act inh	MT1-MMP act inh RFP	CSC inhib	eIF4H FP inh	others
CCC(=O)N1CCCC(C)(C(=O)Nc2ccc3oc(CC)nc3c2)C1 (stereo not drawn)	x	-10.8	-9.0	x	3.1	8.8	x	x
O=C(Nc1ccccc1C(=O)O)c1cccc(NC(=O)c2ccccc2Br)c1	i	15.3	-2.9	8.9	-1.0	0.3	-2.4	-4.9
COCC(=O)NC1CCN(C(=O)NCc2ccccc2)CC1	i	-1.7	-12.6	3.3	-3.7	0.3	-4.5	6.3
CSc1ncc(Cl)c(C(=O)Nc2c(C)cccc2C)n1	i	-2.9	-20.5	-3.2	0.4	-1.1	-7.1	-14.5
CCC(=O)N1CCc2cc(S(=O)(=O)NCCC(=O)Nc3ccccc3C)ccc21	i	-12.4	-8.4	3.2	1.0	2.8	x	-4.3
NC(=O)CNC(=O)c1cccc(Cl)c1	i	-4.0	-13.7	-2.2	0.1	0.7	-8.6	4.8
C=C(C)c1cccc(C(C)(C)NC(=O)Nc2ccc(OC)cc2)c1	i	14.8	-7.7	-0.4	6.0	4.9	-4.8	1.6
N#Cc1cnc2cc(-c3ccccc3)nn2c1N	i	47.7	-17.7	3.4	-8.7	-4.1	-6.1	-8.5
CCOC(=O)c1cc(-c2ccc(C#N)cc2)nc2c1c(C)nn2CCC#N	i	x	x	-14.5	2.6	-3.2	12.2	-7.1
COc1ccc(CCCC(=O)Nc2ccc(F)cc2)cc1	i	-5.6	-13.4	-5.4	1.2	4.0	14.3	-6.6
CCOC(=O)c1nc2c(ccc3ccccc32)cc1C	i	-18.5	3.8	8.2	-8.6	-5.8	-5.0	-9.5
CCc1cc2c(=O)n(Cc3ccco3)c(SCC(=O)NC3CCS(=O)(=O)C3)nc2s1 (stereo not drawn)	i	17.4	x	-16.9	0.6	2.6	-7.2	11.4
Cc1ccc(OCC(=O)Nc2cc(C(=O)O)cc(C(=O)O)c2)cc1C	i	12.9	-19.7	-1.0	0.9	-0.3	-5.8	0.4
O=C(Nc1ccc2nc(C3CC3)n(Cc3ccccc3)c(=O)c2c1)C1CC1	i	-70.3	x	0.3	3.3	-4.7	33.0	4.3
COc1cc2c(cc1OC)CN(CC(=O)Nc1ccc(F)cc1)CC2	i	15.8	-11.9	7.6	-0.4	2.2	-10.6	12.2
CCn1ccnc1CN1CCc2c([nH]c3ccccc23)C1CC(C)C (stereo not drawn)	i	-5.5	x	8.7	-2.9	2.5	-6.0	7.3
CCOc1ccc(S(=O)(=O)N(CC)CC(=O)NCc2cccnc2)cc1C	i	8.6	-0.8	3.5	3.7	-0.4	-3.4	2.6
COCC1CCCN(Cc2cn(-c3ccccc3F)nc2-c2cc(C)sc2C)C1 (stereo not drawn)	i	-1.3	48.0	-7.3	0.0	-5.4	0.9	6.8
O=C(NCCc1ccccc1)C1CCN(S(=O)(=O)c2cccnc2)CC1	i	-8.3	-2.7	-10.2	-1.2	3.3	-20.8	-5.4
COc1ccccc1C(=O)NC(CCSC)C(=O)NNC(=O)c1ccccc1C (stereo not drawn)	i	-4.3	4.8	x	2.2	-2.6	27.9	x
Cc1ccc(S(=O)(=O)N(C)C)cc1NC(=S)NNC(=O)C(N)=O	i	-4.9	x	61.0*	2.7	2.3	-10.6	9.4	eIF4H FP inh retest=45.0;PABP polyA inh retest=89.7*
CCOc1ncccc1C(=O)NNC(=O)CSc1ccc(Cl)cc1	x	-2.4	-14.7	x	2.3	4.0	-12.6	x
COc1cc(C(=O)NS(=O)(=O)c2ccccc2C)ccc1Cc1cn(C)c2ccc(NC(=O)OC3CCCC3)cc12	i	x	x	51.6	x	x	64.6	45.4*	eIF4H FP inh retest=54.4*;PABP polyA inh retest=12.1
O=C(CCCCN1CCCCC1)c1ccccc1	i	2.8	-9.6	x	4.0	5.5	-10.6	x
CCNc1nc(Cl)nc(-c2cn(-c3ccccc3)c3ccccc23)n1	i	-3.1	x	-3.2	3.2	0.1	18.0	-7.8

(cont.)
SMILES	Rce1 inh	HIV Env fusion	Yeast UUG start	PABP polyA inh	MT1-MMP act inh	MT1-MMP act inh RFP	CSC inhib	eIF4H FP inh	others
O=C(N/N=C/c1ccc(OC(=O)c2ccccc2Cl)cc1)c1ccc(O)cc1	i	-73.0	-8.3	3.8	1.3	-0.9	12.4	-1.2
CCC(=O)c1c[nH]c(C(=O)NCc2ccco2)c1	i	x	x	-3.3	-5.5	6.1	-3.1	-3.1
Cc1c(C(=O)N2CCCC2)oc2c1-c1[nH]ncc1CC2	i	-7.4	-5.2	-0.4	2.2	7.3	-10.0	1.4
CC(C)COc1ccc(CSCCNC(=S)Nc2ccccc2)cc1	i	x	-21.3	-0.4	-5.3	-24.0	58.3	-4.7
O=C(Cc1cccs1)N(CC1CCCO1)C1(C(=O)NC2CCCCC2)CCCCC1 (stereo not drawn)	i	42.0	x	0.7	-5.5	1.3	-6.3	1.1
O=[N+]([O-])c1c(NCc2ccccc2)cc(N2CCc3ccccc3C2)c2nonc12	i	9.4	-1.8	6.1	1.3	-1.1	-3.0	-0.5
O=C(c1cccs1)C1C(c2ccc(Br)cc2)NC(=S)NC1(O)C(F)(F)F (stereo not drawn)	i	-17.2	x	-7.6	0.0	-2.1	-18.8	-10.4
CC(C)CNC(=O)c1cccc(NC(=O)COc2cccc([N+](=O)[O-])c2)c1	i	7.7	x	10.1	4.1	-3.5	-1.4	5.4
CCOC(=O)c1sc2nc(C)c3c(c2c1N)CC(C)(C)OC3	i	x	1.5	-9.8	1.1	0.4	x	-12.1
CC(C)(C#CCN1CCCC1)OCCC#N	i	x	-15.9	19.5	3.2	0.8	-9.7	-9.1
O=c1[nH]c(C2CCN(S(=O)(=O)/C=C/c3ccccc3)CC2)nc2c1nnn2Cc1ccc(F)cc1	i	1.6	-14.8	-0.4	2.5	-7.0	-1.6	6.5
CC(=O)NC1=NN(C(C)=O)C(C)(c2ccco2)S1 (stereo not drawn)	i	13.2	17.6	0.4	1.7	4.4	20.7	0.8
O=C(NC1CCSC1)c1cccc(Cl)c1 (stereo not drawn)	x	0.6	-12.0	1.7	3.2	-0.6	4.1	-9.7
O=C(Nc1ccccc1C(=O)NCCc1ccccc1)c1cnccn1	i	4.2	-13.6	-2.4	-1.3	0.4	1.0	9.5
O=C(NCc1ccccc1)c1ccc(CN(c2ccccn2)S(=O)(=O)c2ccccc2)cc1	x	6.9	-1.8	10.0	2.5	3.5	5.9	-3.8
Cc1cccc(OCCOC(=O)Nc2ccccc2)c1	i	12.5	x	-4.2	3.2	5.8	28.2	-0.2
CN(CC(=O)Nc1ccccc1Cl)C(=O)Cn1cc(C(F)(F)F)cc(Cl)c1=O	i	3.7	-8.6	x	1.7	-1.6	-0.9	x
COc1cccc2c(SCC(=O)N/N=C/c3ccc(O)c(O)c3)cc(C)nc12	x	-0.2	x	55.2	-5.2	-8.6	21.6	21.2	eIF4H FP inh retest=20.1;PABP polyA inh retest=34.1
CCOC(=O)C1(CCOC)CCN(C(C)CCc2ccc(OC)cc2)CC1 (stereo not drawn)	i	-4.9	x	-5.8	-3.4	-3.1	-0.7	-5.8
CCCN(CCC)CCCNC(=O)Cn1cnc2sc(C)c(S(=O)(=O)N3CCC(C)CC3)c2c1=O	i	4.8	-10.2	-0.5	1.7	3.9	-0.4	-7.8

Source: PubChem BioAssay (several laboratories)
